Rango-impB inh = qHTS Assay for Inhibitors of Rango (Ran-regulated importin-beta cargo) - Importin beta complex formation; Importin subunit beta-1 (Homo sapiens), Q14974; Rango CFP/YFP FRET sensor + importin beta, 45 min; Potency, µM (titrated, usually from 92.2 µM), for the others: top-dose inhibition of complex formation; actives 0.031% (n = 340,000); AID 540263, 2011; active = rising FRET ratio curve, often small or poorly fitted; inconclusive = mostly compound fluorescence or quenching in the first reads; inactive = flat curves in all reads;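 also: potency is read from the fitted curve at half-maximal effect; 0% = DMSO wells and 100% = buffer wells lacking importin beta; nearly all actives have a fitted effect of over 15% in size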
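FRET biosensor (snurportin 1 IBB flanked by EYFP and cerulean), 50 nM, with compound 5 min, then 0.125 microM importin beta in PBS, 1 mM DTT, 0.02% Tween-20, 0.1% BSA. CFP/YFP ratio read after 45 min at room temperature; pre-read flags interference.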
miR-21 FLuc = qHTS Assay for Modulators of miRNAs and/orActivators of miR-21 | HeLa miR-21 FLuc reporter, luciferase, 48 h | Potency, µM (doses to about 38.3 µM), without a hit: top-dose reporter change, positive = more light | 340,000 tested, under 10 active | AID 2288, 2010; active = well fitted rising curve with a large enough effect; inconclusive = small, poorly fitted or top-dose-only effect; inactive = no such curve, though single readings can be large or run the other way;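 also: % of control where 0% means no effect; miR-21 action dims this reporter so a rising signal means less miR-21 action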
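Compounds were titrated across several concentrations (up to approximately 40 uM) and incubated 48 hours with HeLa miR-21-FLuc reporter cells (miR-21 target sequence downstream of FLuc, endogenous miR-21). Readout was firefly luciferase luminescence after lytic detection reagent.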
Rango dissoc inh = qHTS Assay for Inhibitors of RanGTP induced Rango (Ran-regulated importin-beta cargo) - Importin beta complex dissociation; actives 0.071% (n = 340,000); Snurportin-1 (Homo sapiens) + GTP-binding nuclear protein Ran (Homo sapiens) + Importin …; Potency, µM (top dose mostly 46.1 µM), for inactives: top-dose activity change, negative = inhibition; Biochemical FRET Rango-importin beta, RanGTP-induced dissociation; active means falling FRET ratio curve, often poorly fitted, with flat reads before Ran was added; inconclusive means other falling curves, or compound fluorescence or quenching; inactive means flat or rising ratio curve;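 also: potency is read from the fitted curve at half-maximal effect; % of control where 0% means no effect; nearly all actives have a fitted effect of over 45% in size; -100% = wells without RanGTP and RCC1; the record marks most hits as doubtful in a second field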
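Two FRET readings bracket the reaction: one 5 min after compound meets Rango–importin beta, another 45 min after RanGTP-RCC1 (0.6 uM Ran, 0.2 uM RCC1, 2 mM GTP) is added. Only the second defines inhibition.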
GLA inh pH 4.5 = qHTS Assay for Inhibitors of Human alpha-Galactosidase at pH 4.5 | Alpha-galactosidase A (Homo sapiens), P06280 | purified enzyme, 4-MU-alpha-Gal fluorescence, pH 4.5 | activity change, negative = inhibition, % at 105 µM | 230,000 tested, under 10 active | AID 1467, 2008; inconclusive = small, poorly fitted or top-dose-only inhibition, or a rising curve; inactive = flat fitted curve, though single readings scatter; no compound was filed as active;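 also: 0% = full activity with enzyme and -100% = basal without enzyme; dose as in the result columns while the protocol names 77 µM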
Target sequence (P06280 whole entry, looked up): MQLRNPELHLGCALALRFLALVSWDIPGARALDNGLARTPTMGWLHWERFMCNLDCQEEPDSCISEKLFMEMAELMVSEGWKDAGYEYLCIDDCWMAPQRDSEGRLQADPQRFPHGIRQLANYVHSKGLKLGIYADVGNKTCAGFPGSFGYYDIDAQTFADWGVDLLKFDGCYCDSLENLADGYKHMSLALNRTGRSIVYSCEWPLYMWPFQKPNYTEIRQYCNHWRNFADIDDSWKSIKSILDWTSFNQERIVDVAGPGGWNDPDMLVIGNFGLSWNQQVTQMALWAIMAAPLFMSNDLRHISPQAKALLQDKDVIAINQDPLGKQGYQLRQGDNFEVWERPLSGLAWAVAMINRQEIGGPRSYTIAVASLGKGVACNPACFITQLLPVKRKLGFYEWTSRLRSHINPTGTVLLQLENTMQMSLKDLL
The depositor's hits bear a star; ? = inconclusive; . = no result given. Some of the compounds tested; count on the stated rates, not on these rows.

smiles,Rango-impB inh,miR-21 FLuc,Rango dissoc inh,GLA inh pH 4.5
O=C(N/N=C/c1cn(-c2ccccc2)nc1-c1cc2ccccc2o1)c1ccncc1,-7.5%,-30%,0%,1
Cc1[nH]c(=O)c(C#N)cc1-c1ccccc1,2.9%,-22%,17%,5
Cc1ccc(S(=O)(=O)Nc2ccccc2C(=O)N2CCCCC2)cc1,-2.3%,3%,19%,.
NC(=O)COC(=O)c1c2c(nc3ccccc13)CCCCC2,-1.1%,8%,-5%,10
COc1ccc([N+](=O)[O-])cc1NC(=O)c1ccc(-n2nc(C)cc2C)cc1,-1.0%,-7%,1%,-14
COc1ccc(Oc2nc(-c3ccccn3)nc3ccccc23)cc1,0.0%,23%,7%,0
Cc1cccc(OCCCn2c(CO)nc3ccccc32)c1,2.7%,-52%,-7%,6
COC(=O)CCCC(=O)Nc1ccc(Br)cc1,0.2%,-24%,4%,2
CC(C)OCC1CC(CC(=O)Nc2ccc([N+](=O)[O-])cc2)C(=O)O1 (stereo unspecified),-0.2%,7%,-2%,-4
CC(C)=C1SC(N2CCN(c3ccc(C)cc3)CC2)=NC1=O,1.8%,-22%,6%,0

Additional compounds follow:
smiles,Rango-impB inh,miR-21 FLuc,Rango dissoc inh,GLA inh pH 4.5
Cc1ccc(-c2nn3c(C)nnc3s2)cc1NC(=O)COc1ccc(Cl)cc1,0.5%,-3%,-29%,-3
O=C(O)Cn1c(CCS(=O)(=O)c2ccc(Br)cc2)nc2ccccc21,-2.2%,-2%,-4%,-1
CCOC(=O)C1CCN(C(=O)Cc2c(F)cccc2Cl)CC1,3.5%,0%,-10%,-6
Cc1cc(C(F)F)n2ncc(C(=O)NCc3ccc(F)cc3)c2n1,-1.9%,0%,-10%,3
COc1ccc(CC(=O)N(Cc2ccccc2)c2ccc(C)cc2)cc1OC,-1.0%,-1%,0%,.
CC(C)NCC(=O)NC12CC3CC(CC(C3)C1)C2,-3.6%,-1%,-12%,-2
Cc1cc(N2CCCCC2)nc2ccc(NC(=O)c3ccc(Br)o3)cc12,0.7%,6%,-15%,-7
Cc1nn(-c2ccccc2)c(N)c1N=Nc1ccc2ccccc2c1,4.4%,-97%,0%,-5
CC(Oc1ccccc1Cl)C(=O)Nc1ccccc1C(=O)N1CCOCC1 (stereo unspecified),-3.6%,-3%,2%,.
O=C(C1=NOC(CNc2ncc(C(F)(F)F)cc2Cl)C1)N1CCOCC1 (stereo unspecified),-1.0%,0%,-11%,-7

Next records follow:
smiles,Rango-impB inh,miR-21 FLuc,Rango dissoc inh,GLA inh pH 4.5
Cc1nn(CCC#N)c2nc(C(F)(F)F)[nH]c(=O)c12,-1.5%,0%,4%,-5
COc1cccc(-c2csc(/C(C#N)=C/Nc3cc4oc5ccccc5c4cc3OC)n2)c1,-2.1%,1%,-3%,0
C=CCC(CC=C)(NC(=O)c1ccccc1C(=O)O)c1ccccc1,-3.3%,-4%,-12%,-2
N#Cc1ccc(COC(=O)c2cc(=O)c3ccccc3o2)cc1,-4.0%,1%,-14%,8
Cc1nnc(-c2ccc(Oc3ccc(Br)cc3)c([N+](=O)[O-])c2)o1,-1.6%,-10%,31%,-6
CCOC(=O)C1CCN(S(=O)(=O)c2cccc(-c3csc(C)n3)c2)CC1,0.4%,-6%,-6%,2
COc1cccc(CN2C(=O)C3CCCN3c3ccc(S(=O)(=O)N4CCOCC4)cc32)c1 (stereo unspecified),.,-2%,.,-26
CC(C)NC(=O)c1ccc2c(c1)S(=O)(=O)c1ccccc1C2=O,4.7%,-25%,-3%,5
O=C(C1COc2ccccc2O1)N1CCN(S(=O)(=O)c2ccccc2)CC1 (stereo unspecified),0.7%,1%,1%,.
COc1cccc(OC)c1OCCOc1ccc(C(=O)c2ccccc2)cc1,0.4%,6%,11%,-15

The list continues.
smiles,Rango-impB inh,miR-21 FLuc,Rango dissoc inh,GLA inh pH 4.5
CCCCCn1c(=O)c(-c2nc3ccccc3c(=O)[nH]2)c(O)c2ccccc21,.,-2%,.,-5
COc1ccc2c(c1OC)C(=O)N1N=C(c3ccc(-c4ccccc4)cc3)CC21 (stereo unspecified),6.6%,-1%,0%,4
O=C(O)CC(NC(=O)C(c1ccccc1)c1ccccc1)c1ccco1 (stereo unspecified),-2.0%,-2%,-1%,-2
CC(C)NS(=O)(=O)c1ccc(Br)c(C(=O)OC(C)C(=O)NC2CCCCC2C)c1 (stereo unspecified),-1.4%,.,0%,.
COc1ccc(N2CCN(C(=O)C3CCN(S(=O)(=O)N4CCOCC4)CC3)CC2)cc1,-2.2%,10%,17%,-4
O=C(NCc1ccccc1)C(c1ccc(F)cc1)N(Cc1ccc2c(c1)OCO2)C(=O)Cn1nnc(-c2cccs2)n1 (stereo unspecified),?,-3%,0%,0
CC(=O)Oc1ccc2c(c1)C(=O)c1ccccc1C2=O,-4.4%,-35%,2%,.
CCc1cccc(NC(=O)CN(C)S(=O)(=O)c2cnc[nH]2)c1,-4.2%,-3%,18%,-5
O=C(NC1CCN(C(=S)NCCc2ccccc2)CC1)C1CC1,0.7%,2%,0%,-4
CCn1c(CC(=O)Nc2ccc(Cl)c(Cl)c2)nnc1SCc1ccc(C)cc1,1.5%,0%,-12%,5

Later entries.
smiles,Rango-impB inh,miR-21 FLuc,Rango dissoc inh,GLA inh pH 4.5
Oc1c(C(c2cccs2)N2CCC3(CC2)OCCO3)sc2ncnn12 (stereo unspecified),-1.0%,-1%,0%,1
COc1ccc2c(c1)/C(=N/OC(=O)c1cccs1)CCC2,0.3%,4%,-1%,-6
COc1ccc(/C=N/NC(=O)CCN2CCN(c3ccccc3)CC2)c(OC)c1OC,-5.6%,-9%,?,-2
CCOc1cc(C(c2c(C)[nH][nH]c2=O)c2c(C)[nH][nH]c2=O)ccc1OS(=O)(=O)c1ccc(C)cc1,-4.2%,-3%,-1%,1
CC(=O)OC(COc1ccccc1)Cn1cnc2ccccc21 (stereo unspecified),-2.6%,-12%,-12%,0
Fc1ccc(OCCCCN2CCOCC2)cc1,2.0%,2%,-6%,-2
Cc1ccc(NS(=O)(=O)c2cc(C(=O)N3CCc4ccccc4C3)ccc2Cl)cc1,-1.5%,12%,0%,-2
CC(C(=O)NC1CCCC1)N1CCN(S(=O)(=O)c2ccccc2Cl)CC1 (stereo unspecified),1.1%,.,1%,.
Cc1ccccc1N=Cc1cccc(O)c1O,-0.2%,0%,-14%,-4
Cc1cccn2c(=O)c(C=NCCO)c(Nc3ccc(Cl)cc3)nc12,.,3%,.,-1

3 of the compounds above, with two lines to a compound.
Every second line gives: Rango-impB inh, miR-21 FLuc, Rango dissoc inh, GLA inh pH 4.5
Cc1cccn2c(=O)c(C=NCCO)c(Nc3ccc(Cl)cc3)nc12
  ., 3%, ., -1
O=C(N/N=C/c1cn(-c2ccccc2)nc1-c1cc2ccccc2o1)c1ccncc1
  -7.5%, -30%, 0%, 1
CC(Oc1ccccc1Cl)C(=O)Nc1ccccc1C(=O)N1CCOCC1 (stereo unspecified)
  -3.6%, -3%, 2%, .

Following part
smiles,Rango-impB inh,miR-21 FLuc,Rango dissoc inh,GLA inh pH 4.5
CCCCOC(=O)c1ccc(NC(=O)c2cc(Cl)c(Cl)cc2C(=O)O)cc1,-0.1%,-36%,-11%,1
O=C(Nc1ccccc1C(=O)NCc1ccco1)c1ccccc1,-0.9%,-1%,-11%,-8
C=CCc1cccc2cc(C(=O)OCC)c(=O)oc12,-3.3%,-20%,13%,-10
O=C(Nc1ccccc1F)C1CCN(C(=O)NCc2ccccc2)CC1,-2.3%,10%,2%,.
CC(=O)NC(CC(=O)OCC(=O)N1CCc2ccccc21)c1ccccc1 (stereo unspecified),1.1%,-4%,1%,.
COc1ccc(Cl)cc1N1C(=NC(=O)C2CCCO2)SC2CS(=O)(=O)CC21 (stereo unspecified),-0.2%,1%,-6%,.
CCc1ccc(NC(=O)COC(=O)CCc2nc3cc(S(=O)(=O)N(CC)CC)ccc3n2C)cc1,-5.0%,-25%,-18%,-1
CC1(c2nnc(-c3ccc(Cl)cc3)o2)CC(c2cccc(Cl)c2)=NO1 (stereo unspecified),1.2%,2%,5%,8
COc1ccc(N2CCN(C(=O)c3cc(N4C(=O)C5C6CCC(C6)C5C4=O)ccc3Cl)CC2)cc1 (stereo unspecified),0.9%,1%,-6%,3
Cn1ccnc1SCC(=O)c1ccc2ccccc2c1,0.5%,-44%,-11%,10

The results go on.
smiles,Rango-impB inh,miR-21 FLuc,Rango dissoc inh,GLA inh pH 4.5
C[C@H](CO)N1C[C@H](C)[C@@H](CN(C)C(=O)Nc2ccc(C(F)(F)F)cc2)Oc2c(NC(=O)Nc3ccccc3)cccc2C1=O,0.2%,.,-2%,.
CCc1nc2ccc(C(=O)N(C)CC(=O)Nc3ccccc3C(F)(F)F)cc2nc1CC,7.7%,.,-5%,.
COc1ccc(C(c2nnnn2Cc2ccccc2)N2CCN(c3nc4ccccc4s3)CC2)cc1 (stereo unspecified),-3.7%,7%,-4%,-8
COc1ccccc1CNC(=O)COC(=O)CNS(=O)(=O)c1ccc(C)cc1,0.3%,-8%,1%,.
Cc1ccc(SCC(=O)OCC(=O)N(CC(C)C)C2CCS(=O)(=O)C2)cc1C (stereo unspecified),-0.8%,.,-8%,.
CC1=C(C(=O)OCCOc2ccccc2)C(c2ccsc2)NC(=O)N1C (stereo unspecified),-1.7%,9%,-12%,-13
Cc1ncc([N+](=O)[O-])n1CC(=O)Nc1ccc2c(c1)OCO2,0.0%,-1%,1%,-2
CN1CCN(Cc2nnc(-c3ccccc3)o2)CC1,-0.6%,-5%,8%,.
CC(=O)C1(C)N(O)C(C)(C)C(c2cccs2)=[N+]1[O-] (stereo unspecified),1.3%,?,-4%,-6
OC(COCc1ccc2c(c1)OCO2)CN1CCN(Cc2ccccc2)CC1 (stereo unspecified),0.5%,1%,8%,4

(more compounds)
smiles,Rango-impB inh,miR-21 FLuc,Rango dissoc inh,GLA inh pH 4.5
Cc1ccc(C)c(NS(=O)(=O)c2ccc(-c3cnc(C4CC4)o3)cc2)c1,-2.9%,26%,-15%,.
Cn1c(=O)c(Oc2cc(Cl)cc(Cl)c2)nc2ccccc21,2.1%,0%,-4%,3
CSC(=S)N/N=C(\C)c1ccccc1,-1.3%,-5%,3%,8
CCC1(CC)Cc2ccccc2C(Nc2c(C)n(C)n(-c3ccccc3)c2=O)=N1,-3.3%,4%,-13%,-4
CC(C)(C)c1ccc(O)c(/C=N\O)c1,3.6%,-20%,6%,1
CCOc1cccc(N2C(=O)CC(N3CCN(c4ccc(S(=O)(=O)CC)cc4)CC3)C2=O)c1 (stereo unspecified),0.3%,2%,1%,-4
O=C(Nc1nc2ccccc2c(=O)s1)c1ccc(F)cc1Cl,-5.2%,1%,18%,.
CCn1c2ccccc2c2cc(/C(C)=N/O)ccc21,0.1%,-27%,-8%,1
c1ccc(CCN2CN(CCCN3CCOCC3)c3nc4ccccc4n3C2)cc1,6.7%,-10%,2%,5
CC(CCc1ccccc1)NC(=O)CCC1CCCC1 (stereo unspecified),-0.7%,.,-8%,.

Additional compounds follow.
smiles,Rango-impB inh,miR-21 FLuc,Rango dissoc inh,GLA inh pH 4.5
O=c1cc(CO)occ1OCc1c(F)cccc1Cl,0.8%,-6%,4%,0
O=C(Nc1cccc(F)c1)c1ccc(-c2ccccc2C(F)(F)F)o1,.,-47%,.,-2
COc1ccc(C(=O)Nc2ccc3ncccc3c2)cc1,1.7%,1%,-5%,.
CC1=C/C(=N\S(=O)(=O)c2ccccc2)C(C(C)C)=CC1=O,3.7%,8%,1%,-4
